# Sa RN4220 lethal: kills Staphylococcus aureus RN4220; AID 1259311; S. aureus RN4220 growth, OD600, 16 h; inhibition, % (test concentration not listed); 0.33% of 330,000 active;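 active = z-score of -3 or lower and OD600 up to 0.18 on both plates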;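 also: plate controls were untreated cells for no effect and reference antibiotic for full effect; stock transfer was 100 nL into about 80 µL; one replicate is shown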
# PrP UTR inh: inhibition of PrP 5' UTR reporter expression. cell-based PrP 5' UTR mRNA reporter, plate reader. inhibition, % (test concentration not listed). 0.35% of 340,000 active. AID 488862;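 active = every replicate at 50% or more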;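 also: 0 = median of the neutral control wells; tested in H4 reporter cells; numbers are from one replicate; inactives centre near -14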
# BJeLR viability: BJeLR cell viability loss. BJeLR (HRASV12) viability, CellTiter-Glo ATP luminescence, 48 h; reference of the scale not given here. inhibition, % (test concentration not listed). 0.17% of 300,000 active. AID 1554;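 active = replicate mean above 50%; inconclusive = above 50% but judged a plate artefact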;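 also: 50 nL library stock added to about 25 µL; numbers are from one replicate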
# Autofluor counter: counter-screen for toxin protease inhibitors: compound fluorescence; fluorescence intensity (no concentration beside the values); 3.1% of 360,000 active; compound autofluorescence counterscreen, microsphere flow cytometry; active compounds read high;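 active = at least 3 SD above the mean of all compounds, about 16000 in these data; inconclusive = too few beads counted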;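 also: 100 nL of 1 mM stock went into each well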
# Mtb hypoxia rep: reduces hypoxia-regulated biosensor signal in M. tuberculosis. 0.1% of 300,000 active. M. tuberculosis hypoxia-regulated fluorescent reporter, fluorescence. fluorescence inhibition, % (no concentration beside the values);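 active = 35 to 45% if threefold the growth effect, above 45% if 1.5-fold the growth effect; inactive = the rest, general growth blockers included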;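 also: wells of about 50 µL received 100 nL stock; 0% = vehicle wells and 100% = reference inhibitor wells; whole bacteria with a GFP reporter of the hypoxia response; strong numbers were not always called active; many hits fall short of the cut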
# ugtP null kill: compounds lethal to S. aureus RN4220 ugtP deletion mutant | growth inhibition, % (test concentration not listed) | 0.54% of 330,000 active | OD600 growth, 16 h; some inactives read as strong as hits;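 active = z-score under -3 and OD600 up to 0.15 on both plates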;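 also: plate controls were untreated wells for no effect and antibiotic for full effect; wells of about 80 µL received 100 nL stock; the first replicate is given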
# Mtb hypoxia rep growth: also measured in Mtb hypoxia rep; calls as there; growth inhibition, %; measured here: M. tuberculosis growth (absorbance);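 0% = vehicle and 100% = reference antibiotic; read after six days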
# * = called active by the depositor; ? = inconclusive; · = not tested or not shown.
# Results follow in this order: ugtP null kill | BJeLR viability | Sa RN4220 lethal | Mtb hypoxia rep | Autofluor counter | Mtb hypoxia rep growth | PrP UTR inh
> Nc1nc2c(nc(Br)n2C2OC3COP(=O)(O)OC3C2O)c(=O)[nH]1 (configuration not stated)
    2 | · | 5.3 | -5 | · | 2 | ·
> Oc1ccc(C=NNc2ccc3ccccc3c2)c(O)c1
    -4 | · | 6.7 | 4 | · | 8 | ·
> COc1cccc(NC(=S)NCCC(c2ccccc2)c2ccccc2)c1
    11 | -10 | -8.9 | · | 2297 | · | -13
> CCN(CC)CCn1c(=S)[nH]c2cc(C(=O)N3CC=C(c4ccccc4)CC3)ccc2c1=O
    4 | -5 | 6.7 | 8 | · | 13 | ·
> Cn1c(-c2ccc(F)cc2)cnc1NCc1cc2c(cc1[N+](=O)[O-])OCO2
    -2 | 6 | -1.9 | 0 | 10359 | -1 | -4
> COc1ccc(C(C)=NNc2ccc(C(=O)O)cc2)cc1OC
    -4 | · | -0.5 | 9 | · | 7 | ·
> CSc1ccccc1C(=O)Nc1cccc(N(C)S(C)(=O)=O)c1
    -2 | 7 | 4.5 | -6 | 6029 | 7 | -21
> CCOC(=O)c1c(C)nc2ccccc2c1-c1ccccc1
    20 | -2 | 2.4 | 11 | 7283 | -4 | -4
> COc1cc(C=NNc2ccc(C(F)(F)F)cn2)cc(OC)c1O
    -5 | · | 1.6 | -16 | · | 4 | ·
> COc1ccc(-n2nnnc2/C(=C/N(C)C)C(=O)c2ccccc2)cc1
    2 | -1 | 6.6 | -11 | 5512 | 2 | -23
> O=C(/C=C/c1ccco1)NC(=S)Nc1ccc(N2CCOCC2)c(Cl)c1
    14 | -2 | 0.1 | · | 2739 | · | -29
> O=C(COC(=O)c1cccc(OC(F)F)c1)Nc1ncccn1
    0 | · | 0.3 | 15 | 3087 | 0 | -29
> COc1ccc(CC(=O)Nc2cc(C)on2)cc1OC
    -10 | -5 | -2.7 | -2 | 3303 | 13 | -27
> CCOc1ccc(Br)cc1CC(=O)O
    -7 | 7 | 6.1 | · | 3764 | · | -7
> COc1cc(/C=C/C(=O)c2ccc(Cl)s2)cc(OC)c1O
    1 | -5 | 4.7 | 5 | 21357* | 5 | -38
> O=C(CCCCCN1C(=O)c2ccccc2C1=O)Nc1cccc(O)c1
    7 | -4 | 3.9 | 14 | 4286 | 5 | -33
> CN1CCCC1=Nc1c2c(nc3ccccc13)N(C)CC2
    4 | -5 | 3.7 | 6 | 2514 | 3 | -13
> CCNc1nc(N)nc(-c2cc(Cl)ccc2O)n1
    6 | 1 | 8.3 | -3 | 10679 | 13 | -52
> Cc1cc(OCC(=O)Nc2ccncc2)ccc1[N+](=O)[O-]
    3 | 3 | 3.8 | -13 | 3940 | -13 | 5
> CCc1c(C)c(C#N)c2nc3ccccc3n2c1NCCN(C)C
    5 | 1 | 3.7 | 13 | 17739* | 10 | -11
> CCn1c(SCC(=O)NC2CCCCC2)nnc1-c1ccccn1
    6 | 10 | 0.7 | 1 | 5234 | -3 | -18
> COc1ccccc1CN1CCN(C(CC(C)C)c2nnnn2Cc2cccs2)CC1 (configuration not stated)
    -6 | 5 | -1.6 | · | 4031 | · | -11
> CCCCC1CCC(C(=O)Nc2ccccc2N2CCOCC2)CC1 (configuration not stated)
    -15 | · | 3.1 | 6 | ? | 3 | -7
> Nc1cccnc1Oc1ccccc1F
    15 | -6 | 4.0 | 13 | 5662 | -8 | -23
> c1ccc(-n2cc(CN3CCCC(CN4CCCC4)C3)c(-c3ccc4c(c3)OCO4)n2)cc1 (configuration not stated)
    · | 9 | · | · | 7927 | · | -17
> Cc1oc(-c2ccccc2F)nc1CS(=O)(=O)CC(=O)NCCN1CCCC1
    -4 | 0 | -5.3 | -7 | 5163 | -16 | 3
> CCCCCn1c(=O)[nH]c2cc(C(=O)NCCN3CCCCC3C)ccc2c1=O (configuration not stated)
    5 | 1 | 2.0 | 6 | 9515 | 7 | -3
> CCC(C)(C(=O)NC1CCCCC1)N(CC1CCCO1)C(=O)CNC(=O)c1ccccc1 (configuration not stated)
    2 | -3 | 6.3 | -8 | 4357 | 14 | -17
> O=C(Nc1cnn(Cc2ccc(Cl)cc2Cl)c1)c1noc2c1CCCC2
    -17 | · | -8.3 | 7 | 5655 | 9 | -23
> Cc1ccccc1NC(=O)CCCCC(=O)Nc1ccccc1C
    5 | 8 | 0.4 | 5 | 4369 | 3 | -18
> CCOCCOC(=O)Cn1cnc2scc(-c3ccc(C)cc3)c2c1=O
    0 | -20 | 3.5 | 0 | 3200 | 8 | -13
> c1ccc2c(c1)-c1cccc3cccc-2c13
    12 | · | -6.7 | · | 5579 | · | -8
> CCN1C(=O)[C@H]2[C@@H](c3ccc(OC)cc3)N3C(=O)CN(Cc4ccccc4)C(=O)[C@@]3(C)[C@H]2C1=O
    1 | 1 | -14 | 9 | 4102 | 3 | -26
> Cc1cc(C(=O)N2CCCC(N3CCN(c4ccc(F)cc4)CC3)C2)no1 (configuration not stated)
    1 | -7 | -0.4 | 11 | 5784 | -21 | -16
> CCN1CCN(CCNC(=O)c2cn(Cc3ccccc3F)nn2)CC1
    -5 | · | -8.6 | -5 | 5126 | 8 | 0
> O=C(CF)NC(NC(=S)Nc1ccccc1O)C(Cl)(Cl)Cl (configuration not stated)
    · | -8 | · | · | 3234 | · | -26
> Cc1ccc(NC(=O)CCNS(=O)(=O)c2ccc3c(c2)CCC(=O)N3)cc1
    5 | 5 | 3.4 | 4 | 5734 | 1 | -6
> CC(C)CN1C(=O)NC2(CCCc3ccccc32)C1=O (configuration not stated)
    -4 | 14 | 20 | 9 | 5425 | 1 | -32
> CCN(CC)S(=O)(=O)c1cccc(C(=O)N/N=C/c2ccccn2)c1
    · | 1 | · | · | 4340 | · | -72
> CCOc1cc2nc3c4ccccc4n(C)c3nc2cc1OCC
    9 | 2 | 6.5 | 4 | 2580 | -8 | -12
> COC(c1ccccc1)c1nnc(CCC(=O)N(C)CCCC2CCCC2)o1 (configuration not stated)
    -9 | 0 | 1.5 | 2 | 3596 | 15 | -72
> Cc1ccc(C(C)C)c(OCC(=O)Nc2ccc(N3CCOCC3)cc2N2CCOCC2)c1
    0 | · | 6.5 | -5 | 5502 | 0 | -17
> N=C(N)SCc1cn(-c2ccccc2)nc1-c1ccc(Br)cc1
    36 | 3 | 69 | 8 | 4564 | 22 | -10
> Cn1cc(S(=O)(=O)N2CCCC2)cc1C(=O)NCc1ccccc1Cl
    -6 | 3 | -2.0 | -6 | 4193 | 4 | -12
> O=C(Nc1ccccc1N1CCOCC1)C1=NN(c2c(F)c(F)cc(F)c2F)C(=O)CC1
    -8 | · | 7.0 | 5 | 3630 | 4 | -33
> O=S(=O)(Nc1ccc(O)c(CN2CCCCC2)c1)c1ccccc1
    -1 | 13 | -0.3 | · | 2442 | · | -13
> O=C(CCl)N1c2ccccc2CCc2ccccc21
    · | 10 | · | · | 5655 | · | -25
> CCc1ccc(NC(=O)CSc2nc3n[nH]c(C)c3c(=N)n2-c2cccc(OC)c2)cc1
    8 | 1 | 4.7 | 9 | 11102 | 14 | 2
> COc1ccc(-c2nn(-c3ccccc3C)cc2CNCc2cccnc2)cc1F
    1 | 1 | 6.2 | -1 | 4676 | -4 | -13
> O=C1C=CC(=O)N1c1ccc(N2CCCCC2)cc1
    -1 | · | 3.9 | -2 | 2142 | 9 | -5

# Not a retest: 17 of the compounds above.
# Results follow in this order: ugtP null kill | BJeLR viability | Sa RN4220 lethal | Mtb hypoxia rep | Autofluor counter | Mtb hypoxia rep growth | PrP UTR inh
> COc1ccccc1CN1CCN(C(CC(C)C)c2nnnn2Cc2cccs2)CC1 (configuration not stated)
    -6 | 5 | -1.6 | · | 4031 | · | -11
> CCCCC1CCC(C(=O)Nc2ccccc2N2CCOCC2)CC1 (configuration not stated)
    -15 | · | 3.1 | 6 | ? | 3 | -7
> Nc1cccnc1Oc1ccccc1F
    15 | -6 | 4.0 | 13 | 5662 | -8 | -23
> c1ccc(-n2cc(CN3CCCC(CN4CCCC4)C3)c(-c3ccc4c(c3)OCO4)n2)cc1 (configuration not stated)
    · | 9 | · | · | 7927 | · | -17
> Cc1oc(-c2ccccc2F)nc1CS(=O)(=O)CC(=O)NCCN1CCCC1
    -4 | 0 | -5.3 | -7 | 5163 | -16 | 3
> CCCCCn1c(=O)[nH]c2cc(C(=O)NCCN3CCCCC3C)ccc2c1=O (configuration not stated)
    5 | 1 | 2.0 | 6 | 9515 | 7 | -3
> CCC(C)(C(=O)NC1CCCCC1)N(CC1CCCO1)C(=O)CNC(=O)c1ccccc1 (configuration not stated)
    2 | -3 | 6.3 | -8 | 4357 | 14 | -17
> O=C(Nc1cnn(Cc2ccc(Cl)cc2Cl)c1)c1noc2c1CCCC2
    -17 | · | -8.3 | 7 | 5655 | 9 | -23
> Cc1ccccc1NC(=O)CCCCC(=O)Nc1ccccc1C
    5 | 8 | 0.4 | 5 | 4369 | 3 | -18
> CCOCCOC(=O)Cn1cnc2scc(-c3ccc(C)cc3)c2c1=O
    0 | -20 | 3.5 | 0 | 3200 | 8 | -13
> c1ccc2c(c1)-c1cccc3cccc-2c13
    12 | · | -6.7 | · | 5579 | · | -8
> CCN1C(=O)[C@H]2[C@@H](c3ccc(OC)cc3)N3C(=O)CN(Cc4ccccc4)C(=O)[C@@]3(C)[C@H]2C1=O
    1 | 1 | -14 | 9 | 4102 | 3 | -26
> Cc1cc(C(=O)N2CCCC(N3CCN(c4ccc(F)cc4)CC3)C2)no1 (configuration not stated)
    1 | -7 | -0.4 | 11 | 5784 | -21 | -16
> CCN1CCN(CCNC(=O)c2cn(Cc3ccccc3F)nn2)CC1
    -5 | · | -8.6 | -5 | 5126 | 8 | 0
> O=C(CF)NC(NC(=S)Nc1ccccc1O)C(Cl)(Cl)Cl (configuration not stated)
    · | -8 | · | · | 3234 | · | -26
> Cc1ccc(NC(=O)CCNS(=O)(=O)c2ccc3c(c2)CCC(=O)N3)cc1
    5 | 5 | 3.4 | 4 | 5734 | 1 | -6
> CC(C)CN1C(=O)NC2(CCCc3ccccc32)C1=O (configuration not stated)
    -4 | 14 | 20 | 9 | 5425 | 1 | -32

# (next part)
# Results follow in this order: ugtP null kill | BJeLR viability | Sa RN4220 lethal | Mtb hypoxia rep | Autofluor counter | Mtb hypoxia rep growth | PrP UTR inh
> CCNC(=S)Nc1ccc(Oc2ccccc2)cc1
    -1 | 6 | -0.7 | · | 4780 | · | -8
> Cc1ccc2nc(-c3cccnc3)cc(C(=O)Nc3ccccc3[N+](=O)[O-])c2c1
    -10 | -5 | 0.3 | -2 | 5581 | 6 | 5
> COc1ccccc1N(C)S(=O)(=O)c1ccc(C)c(C(=O)N2CCCCCC2)c1
    -4 | · | 2.6 | 4 | 5151 | 1 | -18
> CCCN1CCC(NC(=O)c2cccc(Oc3ccccc3)c2)CC1
    12 | -3 | 4.8 | 11 | 5314 | 6 | -1
> O=C(COC(=O)CCN=C1NS(=O)(=O)c2ccccc21)NNC(=O)c1ccccc1
    7 | 8 | 3.3 | 3 | 5887 | 1 | -26
> COc1cccc(-c2cccc(NC(=O)C3CCN(Cc4nccs4)CC3)c2)c1
    5 | 0 | 2.7 | 9 | 6663 | -1 | 1
> CCCOc1ccc(NC(=O)C2CC(=O)N(C(C)C)C2)cc1 (configuration not stated)
    -1 | 2 | 4.0 | 4 | 8938 | 5 | -53
> O=C(O)C(Cc1cn[nH]n1)=NO
    1 | -10 | 2.5 | 4 | 3329 | 0 | -16
> CCOc1ccc(N(CC(=O)NCc2ccccc2)S(C)(=O)=O)cc1
    -7 | 2 | -15 | 3 | 2886 | 14 | -34
> CC(=Nn1c(C)nc2ccccc2c1=O)c1ccc(N)cc1
    -6 | · | -2.0 | -4 | · | 9 | ·
> O=C(COC(=O)C1CCN(S(=O)(=O)c2ccc3c(c2)OCCO3)CC1)Nc1ccc(C(F)(F)F)cc1
    2 | -3 | 2.7 | 4 | 1893 | 2 | -10
> O=C(CSc1nnc(-c2cccnc2)o1)Nc1ccccc1F
    1 | -3 | -2.3 | 1 | 5488 | 8 | -49
> Cc1cc2[nH]c(=O)c(=O)[nH]c2cc1S(=O)(=O)N(C)C1CCCCC1
    5 | -5 | 1.1 | · | 4563 | · | -7
